Source: PubChem (National Center for Advancing Translational Sciences (NCATS))
D2 agonist – human D2 receptor agonism in beta-arrestin assay; DiscoveRx PathHunter D2 beta-arrestin, luminescence, 90 min; 100% = 57 uM dopamine signal; activation, % (concentration not given with the values); actives 0.084% (n = 360,000); in the data active = activation above about 40%; inconclusive = about 15% to 40%; inactive = below about 15%; further: compound concentration not given in the record; the text of the record calls up to 30% inactive
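DiscoveRx PathHunter D2 beta-arrestin cells (2,100/well) attached overnight, then compound-stimulated 90 min at 37 C in HBSS/10 mM HEPES/0.1% Tween-20 buffer; beta-galactosidase complementation read by luminescence after 1 h at ambient temperature. Dopamine 57 uM final (EC100) as control.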
CtBP-E1A blk – blocks the CtBP interaction with E1A; AlphaScreen GST-E1A/His-CtBP binding, 1536-well; hits give low values; control for the full effect not named in the record; activity change, % (concentration not given with the values); actives 0.49% (n = 340,000); AID 651724; in the data active means activity change below about -65%; inconclusive means about -30% to -65%; inactive means above about -30%; further: on the % scale 0 is the no-effect control and ±100 the full control effect
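GST-E1A and His-tagged CtBP (125 nM each as 5X stock) were preincubated with pin-transferred compound for 2 h at 37 °C in the dark, then glutathione donor and nickel acceptor beads were added for 1 h before AlphaScreen reading.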
PINK1 expr mod – PINK1 expression modulation; PINK1 immunofluorescence, high-content cytometry, 24 h; Potency, µM (top dose mostly 76.6 µM), for inactives: at the highest dose activation (PINK1 increase), hits mostly activators; actives 0.2% (n = 410,000); AID 624263; active = well fitted activation curve with a large enough effect; inconclusive = small, poorly fitted or top-dose-only effect; inactive = flat fitted curve, though single readings scatter; cell line not stated here;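 further: potency means the concentration at half of the fitted maximal effect; % of control where 0% means no effect; nearly all actives have a fitted effect of over 65% in size; a mitochondrial uncoupler was the plate control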
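Readout is PINK1 immunofluorescence, quantified alongside mitochondrial, cell and nuclear markers by laser-scanning microplate cytometry. Cells from a stable line were exposed to compound titrations (5 concentrations) for 24 hours, with CCCP controls.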
TRPML1 inh – human mucolipin-1 channel inhibition. Q9GZU1. TRPML1-inducible cells, Ca2+ dye fluorescence, FDSS; hits give low values; inhibition of EC80 agonist-evoked calcium signal. activity change, negative = inhibition, % (no concentration beside the values). actives 0.02% (n = 390,000). AID 624415; in the data active means activity change below about -50%; inconclusive means about -30% to -50%; inactive means above about -30%;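 further: stimulus is agonist 54-4 at its EC80 concentration; on the % scale 0 is the no-effect control and ±100 the full control effect; compound concentration not given in the record; the text of the record puts the active cut at -80%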
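Tet-induced TRPML1-DL cells loaded with Ca8 no-wash calcium dye were read kinetically on FDSS. Compound addition was followed by EC80 agonist 54-4 (4 uM final); inhibition was read over 110 s.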
Six1-Eya2 inh – blocks human Six1 binding to Eya2; actives 0.56% (n = 360,000); activity change, % (test concentration not listed); AID 651725; Q15475+O00167; AlphaScreen GST-Six1/His-Eya2 binding, biochemical; hits give low values; control for the full effect not named in the record; in the data active = activity change below about -65%; inconclusive = about -30% to -65%; inactive = above about -30%; further: on the % scale 0 is the no-effect control and ±100 the full control effect; compound concentration not given in the record
Target sequence (O00167 whole entry, looked up): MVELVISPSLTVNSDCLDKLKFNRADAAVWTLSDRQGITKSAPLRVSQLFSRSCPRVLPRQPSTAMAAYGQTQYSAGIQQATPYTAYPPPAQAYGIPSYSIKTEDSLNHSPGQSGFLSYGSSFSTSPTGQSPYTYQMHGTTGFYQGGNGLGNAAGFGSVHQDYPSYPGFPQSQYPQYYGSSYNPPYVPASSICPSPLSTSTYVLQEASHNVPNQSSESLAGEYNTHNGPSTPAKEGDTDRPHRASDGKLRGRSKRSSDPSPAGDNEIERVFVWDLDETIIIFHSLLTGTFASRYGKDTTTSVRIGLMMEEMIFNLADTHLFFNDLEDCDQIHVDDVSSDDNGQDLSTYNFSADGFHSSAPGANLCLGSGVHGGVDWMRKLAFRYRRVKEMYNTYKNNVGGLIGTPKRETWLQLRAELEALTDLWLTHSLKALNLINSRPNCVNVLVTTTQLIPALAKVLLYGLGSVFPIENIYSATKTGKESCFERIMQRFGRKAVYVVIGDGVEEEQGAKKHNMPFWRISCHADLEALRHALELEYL
Target sequence (Q15475 whole entry, looked up): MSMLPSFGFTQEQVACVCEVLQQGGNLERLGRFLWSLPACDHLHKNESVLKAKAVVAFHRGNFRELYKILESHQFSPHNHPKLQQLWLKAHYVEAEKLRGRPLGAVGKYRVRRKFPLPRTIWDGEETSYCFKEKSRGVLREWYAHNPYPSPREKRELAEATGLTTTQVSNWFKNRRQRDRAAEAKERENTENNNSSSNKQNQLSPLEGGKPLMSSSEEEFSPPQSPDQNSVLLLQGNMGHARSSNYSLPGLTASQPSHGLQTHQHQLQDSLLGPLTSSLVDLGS
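Six1/Eya2 binding was read as AlphaScreen signal after compounds were pinned into GST-Six1 plus His-tagged Eya2 (5X stock 250/500 nM) in pH 8.0 Tris/NaCl/TCEP buffer, beads added, then incubated 1 h, 37 C, dark.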
TRPML1 ag – activates the human TRPML1 channel; Q9GZU1; TRPML1-expressing cells, Ca2+ dye fluorescence, FDSS; host cell line not named in the record; reference of the full effect not given here; activation, % (test concentration not listed); actives 0.12% (n = 410,000); AID 624414; in the data active = activation above about 50%; inconclusive = about 30% to 50%; inactive = below about 30%; further: 0% is about no effect; the text of the record puts the active cut at 80%
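Calcium fluorescence on an FDSS kinetic reader gave the read-out. Tet-induced TRPML1-DL cells were plated overnight, dye-loaded (Ca8 with quencher, 45-90 min, room temperature, dark), then read 110 s after compound addition, and again 110 s after 4uM final 54-4 (EC80).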
The depositor's hits bear a star; ? = inconclusive; / = no result given; & = joins results of further samples; [ ] = dose if it differs, or a comment.

SMILES	D2 agonist	CtBP-E1A blk	PINK1 expr mod	TRPML1 inh	Six1-Eya2 inh	TRPML1 ag
O=C(CSc1ccccc1Cl)N1CCC(c2nc3ccccc3s2)CC1	-0.5	0	-2.4%	18	-3	1.7
Cn1c(C(=O)NCC2CCCO2)cc2c(=O)n(C)c3ccccc3c21 (stereo not drawn)	4.5	1	5.5%	4	-2	4.2
CCC1(c2ccc(F)cc2)NC(=O)N(CC(=O)Nc2cccc(S(=O)(=O)N3CCCCC3)c2)C1=O (stereo not drawn)	-5.4	10	3.2%	-3	-7	6.6
C=CCn1c(=O)c(C#N)cc2c(=O)n3ccccc3nc21	-1.1	-2	0.4%	1	-1	0.2
COc1ccc(C)cc1NCc1cc(=O)oc2cc(-c3ccccc3)c(O)cc12	0.3	-24	1.3%	22	-3	-0.4
Fc1ccc(/C=N/NC(=S)Nc2ccc(Cl)cc2Cl)cc1	1.1	3	13%	-13	-5	-0.1
O=C1COc2ccc(S(=O)(=O)NCCc3ccc(Cl)cc3)cc2N1	-2.3	0	-0.3%	-18	7	1.6
COc1cc(OC)c(C2CC(=O)N3CN(c4ccc(C)cc4)CSC3=C2C#N)cc1OC (stereo not drawn)	6.0	0	1.7%	7	-10	0.3
Cn1ncc(N=Cc2ccccc2)c1C(=O)Nc1cccc(Cl)c1	-2.5	11	8.4%	?	2	-0.3
COc1ccc(N/C(=N\c2nc(C)cc(C)n2)NC(C)=O)cc1OC	-2.5	1	0.2%	7	-1	0.1
Cc1ccc(C)c(N=Nc2nc3ccccc3n2C)c1	-7.5	11	/	0	?	2.8
CCOc1ccc(NC(=O)CCNC(=O)c2ccco2)cc1	-2.7	0	-2.3%	-1	7	0.0
CCN(CC(=O)Nc1ccc(NC(C)=O)cc1)C(=O)Cc1coc2cc(C)c(C)cc12	2.0	0	-0.7%	24	-8	-0.1
C#CCOc1ccc(/C=C2/C(=O)ON=C2C)cc1Cl	-5.4	8	11%	0	-2	0.9
COc1ccc(Cl)cc1CC1(C)C(=O)Nc2ccc(-c3ccccc3OC)cc21 (stereo not drawn)	5.1	-9	1.6%	/	-11	-0.7
CCCCn1c(O)c(N=Nc2ccccn2)c2ccccc21	-3.6	20	8.3%	17	15	4.0
Cc1cccc(/C=N/NC(=O)c2ccc(NC(=O)c3ccccc3Cl)cc2)n1	-2.8	3	2.7%	8	-3	-0.2
CCOC(=O)C1=C(c2ccccc2)Nc2ncnn2C1c1ccc(Cl)cc1 (stereo not drawn)	/	/	0.8%	-7	/	1.9
CCc1ccc2c(c1)c(=O)c(S(=O)(=O)c1ccccc1)cn2CC(=O)Nc1cc(C)ccc1C	/	/	5.6%	6	/	-0.5
Cc1cc(N)n(-c2ccccc2C)n1	1.2	0	1.0%	14	5	-0.1
CC(OC(=O)c1cc(=O)[nH]c2ccccc12)C(=O)NC1CCCCC1C (stereo not drawn)	-4.0	-10	1.3%	18	2	-0.4
Cc1nccn1CCCN1C(=O)CNC1=S	-3.8	3	3.2%	-4	0	-0.3
N=C1/C(=C/c2cccn2CCOc2ccccc2)C(=O)N=C2SC=C(c3ccccc3)N12	-6.6	-1	17%	6	-17	0.1
O=C(OCc1ccccc1)N1CCC2CC1c1ccc(N3CCNCC3)cc12 (stereo not drawn)	-11	-20	-0.3%	24	-14	0.4
O=C(C1CC(=O)N(c2ccc3c(c2)OCCO3)C1)N1CCN(S(=O)(=O)c2cccc(F)c2)CC1 (stereo not drawn)	-0.3	-13	2.0%	12	11	-0.3
O=C(CCN1C(=O)c2ccccc2C1=O)NCc1ccc(F)cc1	2.6	/	-1.3%	/	13	/
COc1ccc(CNc2ncccn2)cc1OC	0.6	-24	-1.4%	23	-1	0.5
Cc1cc(C(=O)Nc2ccc3nc(C)sc3c2)c2ccccc2n1	-5.7	/	?	1	0	-0.1
CCOC(=O)c1c(-c2ccc(C)o2)csc1NC(=O)CSc1nnnn1-c1ccccc1	-2.5	8	0.1%[38.3 µM]	12	-9	0.8
Cc1ccc(NC(=O)c2oc3ccccc3c2NC(=O)c2ccc(F)c(F)c2)cc1	/	/	2.2%	-25	/	-0.3
COc1ccc(N2CCN(C(=O)CNS(=O)(=O)c3ccc(C)c(C)c3)CC2)cc1	0.0	-6	-0.8%	5	-14	-0.1
O=C(Nc1ccccc1-c1ccccc1)NC1CC2CCCC(C1)N2CCc1ccccc1 (stereo not drawn)	-5.5	/	1.0%	0	6	-0.2
Cc1ccc(C(=O)c2ccccc2C(=O)OCC(=O)NCCc2ccccc2)cc1	2.2	4	-0.9%	5	9	1.9
CNc1ccncc1S(=O)(=O)NC	-1.2	2	0.3%	0	0	1.2
COc1ccc(-n2nc3cc(N)c(Br)cc3n2)cc1	-3.4	-4	3.1%	-13	-7	-0.2
O=C(CN1C(=O)c2ccccc2C1=O)Nc1cccnc1	-2.8	4	0.1%	-5	-4	-0.8
Cc1ccc(S(=O)(=O)N(NC2=NS(=O)(=O)c3ccccc32)C(=O)c2ccccc2)cc1	-5.3	-13	3.4%	-5	-1	0.1
O=C1c2ccccc2S(=O)(=O)N1CC1CC(c2ccccc2Cl)=NO1 (stereo not drawn)	-2.8	-5	9.8%	-12	9	1.1
CC(C(=O)NN=C(c1ccccc1)c1ccccc1)N1CCOCC1 (stereo not drawn)	-0.4	/	-1.9%	20	5	0.3
C=CCNC(=O)CN1CCC(c2nc3ccccc3[nH]2)CC1	-1.6	/	1.2%	25	4	0.6
CNC(=O)c1[nH]cnc1C(=O)Nc1ccc(C)cc1	-2.3	/	2.3%	19	-2	0.1
Cc1nn(Cc2ccccc2Cl)c(C)c1NC(=O)NC12CC3CC(CC(C3)C1)C2	0.8	-1	21%	-12	-3	-0.9
COc1ccc(NC(=O)C2CCN(c3nc(C)nc4c3CCC4)CC2)cc1	-4.5	0	-1.5%	-5	8	1.0
O=C(Nc1ccccc1)Nc1n[nH]c2nnc(-c3ccccc3)c(-c3ccccc3)c12	2.7	-18	3.6%	2	0	0.3
COC(=O)C[C@@H]1C[C@H]2c3cc(NC(=O)C4CCC4)ccc3O[C@H]2[C@@H](CO)O1	-1.4	2	-1.9%	9	4	-0.2

Compound profiles (already shown). Screens in order: D2 agonist | CtBP-E1A blk | PINK1 expr mod | TRPML1 inh | Six1-Eya2 inh | TRPML1 ag
`CNc1ccncc1S(=O)(=O)NC` in the list: -1.2 | 2 | 0.3% | 0 | 0 | 1.2
`COc1ccc(N2CCN(C(=O)CNS(=O)(=O)c3ccc(C)c(C)c3)CC2)cc1` in the list: 0.0 | -6 | -0.8% | 5 | -14 | -0.1
`Cc1ccc(S(=O)(=O)N(NC2=NS(=O)(=O)c3ccccc32)C(=O)c2ccccc2)cc1` in the list: -5.3 | -13 | 3.4% | -5 | -1 | 0.1

Quoted at random: six compounds from above
SMILES	D2 agonist	CtBP-E1A blk	PINK1 expr mod	TRPML1 inh	Six1-Eya2 inh	TRPML1 ag
COc1ccc(N2CCN(C(=O)CNS(=O)(=O)c3ccc(C)c(C)c3)CC2)cc1	0.0	-6	-0.8%	5	-14	-0.1
COC(=O)C[C@@H]1C[C@H]2c3cc(NC(=O)C4CCC4)ccc3O[C@H]2[C@@H](CO)O1	-1.4	2	-1.9%	9	4	-0.2
CC(OC(=O)c1cc(=O)[nH]c2ccccc12)C(=O)NC1CCCCC1C (stereo not drawn)	-4.0	-10	1.3%	18	2	-0.4
C#CCOc1ccc(/C=C2/C(=O)ON=C2C)cc1Cl	-5.4	8	11%	0	-2	0.9
Cc1cc(C(=O)Nc2ccc3nc(C)sc3c2)c2ccccc2n1	-5.7	/	?	1	0	-0.1
Cc1cccc(/C=N/NC(=O)c2ccc(NC(=O)c3ccccc3Cl)cc2)n1	-2.8	3	2.7%	8	-3	-0.2

Other records follow:
SMILES	D2 agonist	CtBP-E1A blk	PINK1 expr mod	TRPML1 inh	Six1-Eya2 inh	TRPML1 ag
N#CC(=C(O)COC(=O)Cc1c[nH]c2ccccc12)c1nc2ccccc2[nH]1	3.0	-14	0.6%	15	-8	-1.0
Fc1ccc(Br)cc1C1C=C(c2ccc(Br)cc2)Nc2nnnn21 (stereo not drawn)	/	/	7.8%	66	/	3.3
C=CCC1(O)C(=O)N2C(=C1C(=O)N1CCOCC1)c1ccccc1CC2(C)C (stereo not drawn)	-2.1	8	8.3%[38.3 µM]	-6	2	0.1
OC(CN(c1ccccc1)c1ccccc1)Cn1cnc2ccccc21 (stereo not drawn)	-3.2	3	20%	7	-6	3.7
CCCn1ncc(CN2CCC(CO)(Cc3ccc(OC)cc3)CC2)c1C	-5.8	-10	2.0%	3	5	0.9
COc1ccc(C(=O)N2CCC(n3nccc3NC(=O)C3CC3)CC2)c(OC)c1OC	2.9	3	-0.3%	36	7	0.7
COc1ccccc1C(=O)NCCn1cc(SCC(=O)Nc2ccccc2F)c2ccccc21	/	/	2.4%	55	/	3.6
CCOC(=O)N1CCN(S(=O)(=O)N2CCCC(C(=O)NCc3cccc(OC)c3)C2)CC1 (stereo not drawn)	5.2	11	-1.1%&0.0%	-5&7	7	2.6&-0.6
O=C(CN1CCN(c2cccc(C(F)(F)F)c2)CC1)N(C1CC1)C1CCS(=O)(=O)C1 (stereo not drawn)	4.2	3	2.0%	-1	0	2.6
NC(=O)N/N=C/C=C/c1ccccc1	-6.6	-8	0.5%	49	-1	-0.6
COc1ccc(OC)c(NC(=O)C(=O)NCCC2=CCCCC2)c1	1.3	6	-1.2%	25	13	2.3
Cc1nn(Cc2ccc(Cl)cc2)c(C)c1NC(=O)c1c(-c2ccccc2)noc1C	-5.1	0	-2.3%	6	-1	0.6
Cc1[nH]nc(SCC(=O)NCc2ccccc2)c1[N+](=O)[O-]	-1.0	4	0.7%	3	-4	-0.3
CCOC(=O)[C@]12CCC=C1N(Cc1ccco1)C(=O)[C@H](CC(=O)NCCc1ccccc1OC)C2	/	-1	-0.7%	/	-3	-1.0
CCCn1cc(CN2CCCC(CNC(=O)c3ccc(F)cc3)C2)c(C)n1 (stereo not drawn)	0.8	-1	0.2%	-5	3	0.4
CCOc1ccc(C(=O)Nc2ccc3oc(-c4ccncc4)nc3c2)cc1	/	/	2.6%	-9	/	-0.7
CCOC(=O)c1c(C)c(C(=O)Nc2ccc(N(C)C)cc2)c(C)n1CC	-1.9	-7	11µM*	7	-27	0.5
C=CCNC(=S)NNc1nc2c(c(=O)[nH]1)C1(CCCCC1)Cc1ccccc1-2	2.7	-4	15%	-10	-23	1.2
O=C(O)C(c1ccccc1)N1C(=O)/C(=C/c2cccs2)SC1=S (stereo not drawn)	-3.5	?	4.2%	15	-27	0.3
CCCCCCC/C=N/Nc1nnc(Cc2ccccc2)c(=O)[nH]1	-3.2	-27	0.9%	4	-23	2.4
Cc1ccc(-n2sc3ccccc3c2=O)cc1S(=O)(=O)N1CCCCC1	9.2	?	2.1%	0	?	1.9
CN(C=O)c1cc([N+](=O)[O-])ccc1OCc1ccccc1	-4.9	2	-4.3%	-8	1	0.0
